High-throughput results as filed in PubChem.
VDR inhibitor – inhibitors of human vitamin D receptor; Potency, µM, for the others: max response, negative = inhibition, usual class: inhibitors; VDR-SRC2-3 peptide fluorescence polarization, 2 h; AID 504847; actives 0.93% (n = 400,000); P11473; active = well fitted inhibition curve with a large enough effect; inconclusive = small, poorly fitted or top-dose-only effect, or another doubt; inactive = no such curve, though single readings can be large or run the other way; note: series mostly up to about 120 µM
Target sequence (P11473 whole entry, looked up): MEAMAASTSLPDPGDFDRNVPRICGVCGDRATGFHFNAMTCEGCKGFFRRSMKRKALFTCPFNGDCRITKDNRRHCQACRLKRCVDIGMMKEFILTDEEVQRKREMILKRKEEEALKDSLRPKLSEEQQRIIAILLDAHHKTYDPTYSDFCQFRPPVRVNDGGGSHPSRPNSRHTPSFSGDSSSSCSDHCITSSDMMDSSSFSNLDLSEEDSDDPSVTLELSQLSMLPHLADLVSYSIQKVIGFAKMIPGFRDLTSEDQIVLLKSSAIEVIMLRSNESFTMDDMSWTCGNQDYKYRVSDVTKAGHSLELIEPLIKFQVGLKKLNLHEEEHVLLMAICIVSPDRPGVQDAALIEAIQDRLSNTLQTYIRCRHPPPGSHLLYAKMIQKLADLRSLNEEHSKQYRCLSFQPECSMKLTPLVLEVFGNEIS
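Reagent solutions, kept cold and dark, are dispensed first; compounds are then pinned in at 23 nl, plates briefly spun, and incubated 2 h at ambient temperature. Inhibition of VDR–SRC2-3 peptide binding is read by fluorescence polarization.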
An asterisk follows results filed as active; ? = inconclusive; & = joins results of further samples. % is set by controls: 0 for no effect and ±100 for the full control effect; potency is the fitted concentration of half-maximal effect. Not all compounds are listed; the hit share may differ from the screen's.

SMILES | VDR inhibitor
COc1ccc(CCNC(=O)C(C)n2c(=O)cc(C(F)(F)F)c3c(C)nn(C)c32)cc1OC (centres undefined) | 2%
Cc1ccc(-n2c(C)cc3c2CC(C)(C)CC3=O)cc1C | -1%
O=C(COC(=O)c1ccc(O)cc1O)N=c1sccn1Cc1ccccc1Cl | -20%
COc1ccc(CCN=CC2=C(O)CCCC2=O)cc1OC | -8%
COc1ccc(N2CCN(c3ccc(N4C(=O)CC(C)C4=O)cc3[N+](=O)[O-])CC2)cc1 (centres undefined) | -20%
Cc1cc(NC(=O)C2CC2)ncc1NC(=O)c1ccccn1 | -8%
CCc1cc2c(SCC(=O)c3ccc(Cl)s3)ncnc2s1 | 1%
O=C(COC(=O)c1cccs1)NC1CCCCC1 | 9%
COc1ccc2nc(NC(=O)C3CCCN(S(=O)(=O)c4cccc5nsnc45)C3)sc2c1 (centres undefined) | 1%
COc1ccc(C(=O)NCc2ccc3c(c2)CCN3C(=O)c2ccc(F)cc2)cc1 | 8%
COc1ccc([N+](=O)[O-])cc1N(CC(=O)NC1CCCCC1)S(C)(=O)=O | 11%
COc1cccc(CNC(=O)C(=O)NCC(c2ccco2)S(=O)(=O)c2cccs2)c1 (centres undefined) | 3%
CCn1cc(C(=O)O)c(=O)c2cc(F)c(N3CCN(C(=O)Nc4ccccc4)CC3)cc21 | 8%
Cc1ccc(S(=O)(=O)N2CCN(C(=O)COC(=O)/C=C/c3ccc(F)cc3)CC2)c(C)c1 | -13%
O=C(Nc1ccc2oc(=O)ccc2c1)c1cc([N+](=O)[O-])ccc1N1CCOCC1 | 6%
O=C(/C=C/c1ccc(F)cc1)NCCNC(=O)/C=C/c1ccc(F)cc1 | 9%
CC(C)OCCCNC(=O)C(Cc1ccccc1)NS(=O)(=O)c1ccc2c(c1)CCC(=O)N2 (centres undefined) | 13%
NCC(=O)Nc1ccc(Br)cc1 | 8%
COc1ccccc1C(=O)Nc1ccc(N2CCN(S(C)(=O)=O)CC2)cc1 | 3%
CC1CCCN(CCCNC(=O)CCn2nc(-c3ccccc3)ccc2=O)C1 (centres undefined) | -13%
Nc1nc(NCc2ccc(F)cc2)c2[nH]cnc2n1 | 9%
CCc1ccc2oc(C(=O)Nc3sc4c(c3C(=O)NC)CCCC4)cc(=O)c2c1 | -2%
COc1cccc(/C=N/NC(=O)CSc2ccccc2C)c1O | -14%
O=C(COC(=O)c1ccco1)NCc1cccs1 | 2%
Cc1ccc(NC(=O)CSCC(=O)Nc2nnc(C)s2)cc1 | -21%
CCn1nc(NS(=O)(=O)c2ccccc2[N+](=O)[O-])c2cc3ccc(C)cc3nc21 | -5%
Cc1ccc(Cn2c(=N)n(CC(O)COc3ccccc3)c3ccccc32)cc1 (centres undefined) | -15%
Cn1c(-c2ccccc2)c(/C=N/NC(=O)c2cccnc2)c2ccccc21 | -6%
COC(=O)C1(C(C)=O)CC2=CC[C@@H]3C(=O)N(c4ccccc4)C(=O)[C@@H]3[C@@H]2Cc2ccccc2[C@@H]1C[N+](=O)[O-] (some centres undefined) | 4%
Cc1nc(N2CCCCC2)c2c(C)c(C(=O)Nc3cccc(C(F)(F)F)c3)sc2n1 | -7%
O=C(COC(=O)c1ccc[n+]([O-])c1)Nc1ccc([N+](=O)[O-])cc1Cl | 8%
COC(=O)C1=C(C)NC(C)=C(C(=O)OC)C1C(=O)OCC(=O)Nc1ccc(C(C)=O)cc1 | -1%
CCOC(=O)c1cccc(OC(=O)CCNC(=O)c2ccc(Cl)cc2)c1 | -11%
Cc1ccc(SCCNC(=O)c2ccc(C)c(S(=O)(=O)Nc3ccccc3C)c2)cc1 | 3%
CCCNC(=O)C1CCC(Cn2c(=O)c3sccc3n(CC(=O)N3CCCC(C)C3)c2=O)CC1 (centres undefined) | 6%
COc1ccccc1CCNC(=O)Cc1c(C)c2cc3c(C(C)(C)C)coc3c(C)c2oc1=O | 12%
Cc1ccc(NC(=O)c2cc(S(=O)(=O)N3CCCCC3)c[nH]2)cc1F | 7%&-3%
CCc1nc(N2CCN(C(=O)CCl)CC2)c2c3c(sc2n1)CC(C)CC3 (centres undefined) | ?
CCC1c2ccc(C)n2CCN1C(=O)Nc1ccccc1OC (centres undefined) | 1%
CCOC(=O)c1cc(C(=O)NC(C)c2ccccc2)c(=O)[nH]c1C (centres undefined) | -4%
COC(=O)C1(C)NC(c2cccs2)C2C(=O)N(c3ccc(F)cc3)C(=O)C21 (centres undefined) | 10%
COc1ccc(S(=O)(=O)N2CCCC(C(=O)NC3CCCC3)C2)cc1OC (centres undefined) | 5%
COc1cccc(-c2nnc(SCC(=O)NCc3ccc4c(c3)OCO4)n2Cc2ccco2)c1 | 16%
Cc1cccc(C)c1-n1cccc1/C=C1/C(=N)N2C(=NC1=O)SN=C2S(C)(=O)=O | ?
COc1cccc(-c2[nH]c3c(c2-c2c(-n4cccc4)n(C)c(=O)[nH]c2=O)c(=O)[nH]c(=O)n3C)c1 | 17%
CCCNC(=O)CCNS(=O)(=O)c1ccc2c(c1)c(=O)n(C)c(=O)n2C | -19%
Cc1ccc(S(=O)(=O)N(C)c2ccc(OCC(=O)NCC3(N(C)C)CCCCC3)cc2)cc1 | -3%
N#Cc1ccc(COC(=O)C2CCC(=O)N2)cc1 (centres undefined) | 22%
Cc1ccc(C(C)C)c(OCc2ccc(C(=O)Nc3ccc(S(N)(=O)=O)cc3C)o2)c1 | 1%
CCn1cnc2cc(NCc3nc4ccccc4n3Cc3ccccc3)ccc21 | 16%
O=S(=O)(NC1CCCC1)c1cccc(-c2nnc(-c3ccccc3)o2)c1 | 26%
O=C(Nc1ccon1)c1ccccc1F | 14%
COc1ccc(NC(=O)C2=C(C)Nc3ncnn3C2c2ccccc2C(F)(F)F)c(OC)c1 (centres undefined) | 1%
O=C(O)CSc1nc2ccc(Cl)cc2[nH]1 | 22%
CCC(=O)N1CCc2cc(Br)cc(S(=O)(=O)N3CCCC(C(=O)Nc4cccc(Cl)c4C)C3)c21 (centres undefined) | ?
COc1ccc(/C=N/NC(=O)CNC(=O)COc2ccccc2)cc1 | -18%
Cc1nnc(SCCN2CCOCC2)n1-c1cccc(Cl)c1 | 11%
COc1ccc(/C=C/c2ccccc2)cc1[C@H]1[C@H]2C=CC[C@@H](C)[C@@H]2C(=O)N1Cc1ccccc1 | -2%
O=C(CN1C(=O)NC2(CCOc3ccccc32)C1=O)c1ccc(F)cc1 (centres undefined) | 0%
Nc1nc(-c2cccnc2)nc2sc3c(c12)CCCC3 | 18%

Remaining list, next part
SMILES | VDR inhibitor
CC(C)(C)NC(=O)C(c1ccco1)N(Cc1ccc2c(c1)OCO2)C(=O)Cn1nnc2ccccc21 (centres undefined) | 1%
Cc1noc(C)c1COC(=O)c1ccc(F)c(S(=O)(=O)N2CCOCC2)c1 | 7%
CCOC(=O)N1CCN(C(=O)CNC(=O)c2nn(-c3ccc(OC)c(OC)c3)c(=O)c3ccccc23)CC1 | 4%
O=C(CN1CCN(Cc2ccccc2)CC1)N1CCCc2ccccc21 | -19%
Cc1cccc(OCc2nnc(SCC(=O)N3CCN(C(=O)c4ccco4)CC3)n2C)c1C | 11%
Cc1ccccc1-n1nnnc1SCC(=O)NCC1(N2CCOCC2)CCCCC1 | -29%
O=C1CCCN1CCCNS(=O)(=O)c1ccc(F)c(F)c1 | -4%
Cc1c(C(c2ccc(Br)cc2)c2c(C)n(C)n(-c3ccccc3)c2=O)c(=O)n(-c2ccccc2)n1C | -15%
COc1ccc(C(=O)N2CCc3cc4c(cc3C2C)OCCCO4)cc1 (centres undefined) | 2%
COC(=O)NN=C1CCC(c2ccccc2)CC1 (centres undefined) | 1%
Cc1nn2c(N3CCOCC3)cc(C(C)(C)C)nc2c1-c1ccc(Cl)cc1 | -1%
CC(C)(C)[C@H]1COC(=O)[C@@H](Cc2ccc(F)cc2)C/C=C\C[C@@H](CC(=O)N[C@@H](CO)Cc2ccccc2)C(=O)N1 | -2%
Cc1ccc(CN2CCNC(=O)C2CC(=O)NCC(F)(F)F)o1 (centres undefined) | -1%
CCCn1c2ccccc2c2cnn(CC(=O)NCC3CCN(Cc4ccc(C)cc4)CC3)c(=O)c21 | -7%
Cc1ccc(NC(=O)CN(C)S(=O)(=O)c2cccc3nsnc23)cc1Cl | 9%
Cc1cc(C)n2nc3nc4c(cc3c2n1)CCCC4 | 3%
CC(C)(C)OC(=O)NCCc1nnc(SCc2ccc(Cl)cc2)o1 | 14%
Cc1ccc(CSCCNS(=O)(=O)c2ccccc2)cc1 | -10%
O=C(O)c1cc(-c2ccco2)nc2cc3ccccc3cc12 | ?
COc1ccc2sc(-c3ccc(S(C)(=O)=O)cc3)c(C#Cc3cncn3C)c2c1 | 1%
Cc1cc2nc(CS)[nH]c2cc1C | ?
O=C(NCCCN1CCOCC1)c1ccc2c(c1)N(Cc1cccc(Cl)c1)C(=O)c1ccccc1S2=O (centres undefined) | -8%
CS(=O)(=O)N1CCN(c2ccc([N+](=O)[O-])c(NCc3ccccc3)c2)CC1 | 13%
Cc1ccc(N2CC(C(=O)Nc3c4c(nn3C(C)(C)C)CS(=O)(=O)C4)CC2=O)cc1 (centres undefined) | 13%
CCOc1ccc(CNS(=O)(=O)c2cc(-c3cc(C)no3)ccc2OC)cc1OC | 2%
c1ccc(-c2cc(N3CCCCC3)ncn2)cc1 | -15%
CSc1ccc(CNCC(O)c2ccccc2)cc1 (centres undefined) | 21%
O=C(OCc1nnc(-c2ccccc2)o1)C1CC(=O)N(Cc2ccco2)C1 (centres undefined) | -19%
Clc1ccc(-c2nnn3c2nc(NCc2ccc4c(c2)OCO4)c2ccccc23)cc1 | -4%
NCCC[C@@H](CC(=O)N[C@@H]1CCCC[C@H]1C(=O)N[C@H](CC(=O)N[C@@H](CCC(=O)O)CC(=O)O)Cc1ccccc1)NC(=O)C[C@H](Cc1ccccc1)NC(=O)[C@@H]1CCCC[C@H]1N | -4%
c1ccc(-n2ncc3c(N4CCN(CCOc5cccc6ccccc56)CC4)ncnc32)cc1 | 9%
CCCCNc1ccc(C(=O)Nc2cccc(C)n2)cc1[N+](=O)[O-] | -18%
COCCn1cnnc1SCC(=O)Nc1ccc(Br)cc1F | 1%
CCCCc1ccc(NC(=O)C(=O)NCCN2CCN(Cc3ccc([N+](=O)[O-])cc3)CC2)cc1 | ?
CCc1cccc(C)c1NC(=O)c1nc2ccccc2nc1N1CCCCC1 | 5%
O=C1OCCC1Sc1nnc(-c2ccccc2Br)n1Cc1ccccc1 (centres undefined) | -18%
CC(=O)/C(N=Nc1cc(C)ccc1O)=C(\C)O | -2%
CCSc1nc2ccc(OC)cc2cc1C#N | 4%
CCN(CCCNC(=O)c1cc2cc3ccc(OC)cc3nc2s1)c1cccc(C)c1 | -12%
NC(=O)Nn1c(CCC(=O)O)ccc1-c1ccc(F)cc1 | 10%
CN1C(C(=O)NCc2ccccc2)CC2Cn3c(nc4cc(Cl)c(Cl)cc43)C21 (centres undefined) | -14%
Cc1ccc2nc(-c3ccncc3)c(Nc3ccccc3)n2c1 | -12%&-16%
CN1CCN(c2cc3c(c4c2[nH]c2ccccc24)C(=O)CC(C)(C)C3)CC1 | -17%
CCN(CC)C(=O)c1[nH]cnc1C(=O)NCC(=O)OCc1ccccc1 | -5%
Cc1cccc(C)c1C(=NCCCN(C)C)c1ccccc1 | -20%
O=c1oc(-c2ccc(Br)cc2)nc2ccccc12 | -8%
Cc1ccc(CNC(=O)CSc2nc3ccsc3c(=O)n2NC(=O)c2ccccc2)cc1 | 6%
CCOC(=O)C1CCN(CC(=O)Nc2ccc(OC)c(S(=O)(=O)N3CCCCC3)c2)CC1 | 9%
COc1cc(NC(=O)c2cccs2)c(C(=O)OCC(=O)NCc2ccco2)cc1OC | 15%
Nc1nc(-c2cccnc2)nn1C(=O)Cc1ccccc1 | 6%
CCS(=O)(=O)N1CCC(C(=O)NCc2ccccc2OC)CC1 | 7%
Cc1cc2c(ncn2C)c(NS(=O)(=O)c2cc(Cl)ccc2Cl)c1C | -23%
Fc1ccccc1-c1nc(-c2ccccc2)no1 | 0%
CC(=O)Cc1nsc(Nc2ccc3c(c2)OCCO3)n1 | -19%
CN[C@@H]1[C@H](O[C@H]2[C@H](O[C@H]3[C@H](O)[C@@H](O)[C@H](N=C(N)N)[C@@H](O)[C@@H]3N=C(N)N)O[C@@H](C)[C@]2(O)C=O)O[C@@H](CO)[C@H](O)[C@H]1O | ?
CC(C)c1ccc(N(C)C(=O)Cc2c(C(=O)O)n(C)c3ccccc23)cc1 | 10%
